# Bioassay records as filed in PubChem BioAssay.
# Biofilm kill mix = mixtures killing C. albicans biofilm; inhibition, % at 7.6 µM; C. albicans biofilm persisters + clotrimazole, fluorescence viability; primary screen in compound mixtures of four per well; 120,000 tested, 0.02% active; AID 1242;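 active = inhibition above 30.3% in the primary screen of four-compound pools, then above 30% when the compound was retested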;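 also: compounds exposed to preformed 24 h biofilms for 48 h; the number belongs to the whole pool; some results filed as inactive read as strong as hits; inactives centre near 12; 0% = biofilm with clotrimazole alone and 100% = kill control; retested singly at about 60 µM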
#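 Test system: C. albicans biofilms. Buffer or medium: RPMI/MOPS medium, pH 7.0. Timing: 48 h compound exposure at 37 °C. Technique: Alamar Blue fluorescence. Evaluation: percent inhibition of biofilm viability.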
# Active calls of the source: *. Only part of the results is shown. The share of hits here may be higher or lower than overall.
SMILES,Biofilm kill mix
COc1ccc(OC)c(NC(=O)c2cccnc2Sc2cc(C)ccc2C)c1,14.1
CCN(CC)CCC(c1ccc(N(C)C)cc1)c1c(OC)cc(OC)c2c(-c3ccccc3)cc(=O)oc12 (stereo not given),11.1
Cc1cc(C)c(C2=CSC3=NS(=O)(=O)CCN23)c(C)c1,2.2
Cc1ccc(S(=O)(=O)NN2C(=O)c3ccccc3NC2c2ccccn2)cc1 (stereo not given),-2.5
CSc1ccc(CN2CCCC(CNC(=O)c3ccc(F)cc3)C2)cc1 (stereo not given),10.7
Cc1nn(C)c(C(=O)N/N=C/c2cc3c(cc2Br)OCO3)c1Br,10.3
COC(=O)c1sccc1NC(=O)CC1C(=O)NCCN1C(=O)c1ccc(F)cc1 (stereo not given),14.6
O=C(Nc1cccc(Cl)c1)OCCN1CCN(Cc2ccccc2)CCC1=O,15.9
C=CCNC(=O)c1ccccc1NC(=O)c1ccccc1N(C)S(C)(=O)=O,10.7
Cc1ccc(CN2CCN(Cc3cccn3-c3ccc(Cl)cn3)CC2CCO)o1 (stereo not given),3.6
O=C(NCCO)/C(=C/c1cccc([N+](=O)[O-])c1)NC(=O)c1ccco1,14.7
CCOc1ccc(-c2ccc(SCC(=O)Nc3nnc(CC)s3)nn2)cc1,12.0
COc1cc(OC)c(OC)cc1CNCCSc1nnnn1C,-7.8
COC(=O)[C@H](Cc1ccccc1)NC(=O)[C@@]1(C)C[C@@H]1[C@@H](NC(=O)OCc1ccccc1)c1ccccc1,12.0
O=C(NNC(=O)C12CC3CC(CC(C3)C1)C2)[C@@H]1C[C@H]1c1ccccc1,12.0
COc1cc([C@H]2c3[nH]c4ccccc4c3C[C@H]3C(=O)N4[C@@H](c5cc(OC)c(OC)c(OC)c5)c5[nH]c6ccccc6c5C[C@H]4C(=O)N23)cc(OC)c1OC,18.7
COc1cccc(CC2(CO)CCN(CC3=CC[C@H]4C[C@@H]3C4(C)C)CC2)c1,10.5
CCc1nc(SCc2ccc(F)cc2)[nH]c(=O)c1C#N,14.6
CCC(C)C(NC(=O)OC(C)(C)C)C(=O)NC(C)C(N)=O (stereo not given),21.6
CC1C/C(=C\c2cccnc2)C(=O)/C(=C/c2cccnc2)C1 (stereo not given),18.4
O=C1C2C3C=CC(C4CC34)C2C(=O)N1/N=C/c1cccs1 (stereo not given),23.8
Cc1nn(CCCC(=O)NCc2ccc(F)cc2)c(C)c1[N+](=O)[O-],8.4
COCCNC(=O)NC(=O)COC(=O)c1cccn1C,10.9
COc1ccc(NC(=O)c2ccc(OCc3c(C)noc3C)c(OC)c2)cn1,12.6
COc1ccc(Br)cc1S(=O)(=O)N1CCCC1,16.0
O=C(C1CCCO1)N1CCN(c2ccccn2)CC1 (stereo not given),9.0
CC(C)CCNC(=O)c1cc2c(s1)-c1ccccc1S(=O)(=O)C2,22.3
CSc1sc(C(=O)N2CCCCC2)c(-c2cccs2)c1C#N,15.1
COc1ccc(OC)c(Nc2nc(NCc3ccco3)nc(N)c2[N+](=O)[O-])c1,15.1
CCNc1ccc(S(N)(=O)=O)cc1[N+](=O)[O-],16.0
Cn1nnnc1SC(C(=O)Nc1ccc(F)cc1)c1ccccc1 (stereo not given),17.1
O=C(Nc1ccccc1N1CCOCC1)c1cccnc1Cl,-1.9
CC(=O)c1c(C)[nH]c(C(=O)OCc2ccc(F)cc2Cl)c1C,6.8
CC(C)(CO)Nc1nc(Nc2ccccc2)nc(Nc2ccccc2)n1,14.4
CN(C)c1ccc([C@@H]2[C@@H]([N+](=O)[O-])[C@H]3C=Cc4ccccc4N3[C@H]2C(=O)c2ccc(Cl)cc2)cc1,14.4
NS(=O)(=O)c1ccc(CCNC(=O)c2cc(-c3ccccn3)nc3ccc(Br)cc23)cc1,8.0
Cc1cccc(C(=O)N[C@H](C(=O)Nc2nccs2)C(C)C)c1,11.7
Cc1ccc(Nc2nnc(SCC(=O)Nc3cc(C(=O)O)ccc3C)s2)c(C)c1,10.4
CCN(CC)c1ccc(NC(=O)C2CC(=O)N(Cc3ccccc3)C2)cc1 (stereo not given),4.0
CN(C)S(=O)(=O)c1ccc(NC(=O)c2ccc([N+](=O)[O-])cc2)cc1,21.5
CCOC(=O)c1c(NC(=O)CN2C(=O)NC3(CCC(C)CC3)C2=O)sc(C)c1-c1ccc(C)cc1 (stereo not given),11.7
CCOC(=O)c1c(CSc2nc(C)cc(C)c2C#N)n(C)c2cc(Br)c(OC(C)=O)cc12,18.3
CC(=O)OCC#CCSc1nc2ccccc2n1C,16.2
Cc1cc(NC(=O)c2ccc([N+](=O)[O-])cc2)n(C)n1,19.0
COC(=O)c1cn(Cc2cccnc2)c(=O)c2ccccc12,5.1
CCC(=O)Nc1nc2c(c(=O)[nH]1)CCCC2,11.2
O=C(CSC1CC(=O)N(c2ccc(C(=O)O)cc2)C1=O)Nc1ccc(Cl)cc1 (stereo not given),6.8
CC1CCN(S(=O)(=O)c2ccc3nc(-c4ccccn4)cc(C(=O)NCCN(C)Cc4ccccc4)c3c2)CC1,34.7
COc1cccc(CNC(=O)CCC2CCCN(Cc3cc4ccccc4o3)C2)c1 (stereo not given),3.1
Cc1ccc(NC(=S)N(CCCN2CCCC2)Cc2cccn2Cc2ccc(Cl)cc2)cc1,16.1
CC(C(=O)N1CCOCCOCCOCCOCCOCC1)N1C(=O)c2ccccc2C1=O (stereo not given),18.2
COc1ccc(NC(=O)CSc2nncn2C)cc1OC,12.5
CCOC(=O)Cn1cc(C(=O)C(C)(C)C)c2ccccc21,17.5
Cc1ccc(S(=O)(=O)N2CCC(=O)N(C(COCc3cccc(C)c3)C(C)C)CC2)cc1 (stereo not given),19.9
CCC(O)(c1ccc(OC)cc1)C(CN1CCOCC1)c1ccccc1 (stereo not given),10.2
COC(C[C@H](O)[C@@H](C)[C@@H](O)COCc1ccccc1)OC,14.9
CC(C)(C)c1ccc(OCC(=O)N/N=C/c2ccsc2)cc1,14.0
CC[n+]1c(-c2ccc(C)cc2)csc1Nc1c(C)n(C)n(-c2ccccc2)c1=O,19.2
COc1ccc(NC(=O)CCCc2c[nH]c3ccccc23)cc1OC,14.4
Cc1ccc(C(=O)n2nc(-n3cccc3)c3c(C)cc(C)nc32)cc1,-7.6
# The list goes on:
SMILES,Biofilm kill mix
CC(=O)c1c(C)[nH]c(C(=O)NCCc2ccc(Cl)cc2)c1C,10.6
Cc1nn2c(-c3ccncc3)ccnc2c1Cl,13.7
O=C(CSCc1ccccc1)N/N=C/c1cc2c(cc1Br)OCO2,18.4
Cc1nn(-c2ccccc2)c(C)c1/C=N/NC(=O)c1cnccn1,16.9
Cc1cc(C)n(CC(O)COc2ccccc2C)n1 (stereo not given),13.5
CCOCc1nnc(NC(=O)CSc2ccc(C)cc2)s1,13.5
COC(=O)CC1=NN(c2ccc(OC)cc2)C(=O)/C1=C\c1ccc(Cl)cc1,15.8
Cc1cc(C)nc(NS(=O)(=O)c2ccc(NC(=O)Nc3ccccc3)cc2)n1,4.2
COc1ccc2[nH]c(=O)c(CN(c3ccc(C)c(C)c3)S(C)(=O)=O)cc2c1,17.7
O=C(NCc1cccnc1)Nc1ccccc1F,3.7
Cc1cccc2c3nc4ccccc4nc3n(CCCN3C(=O)c4ccccc4C3=O)c12,17.3
Cc1ccsc1CN1CCC(C(=O)NCc2ccccc2Cl)CC1,9.0
CNC(=O)c1c(Cl)cnn1-c1ccccc1,4.0
O=C(Nc1ccccc1N1CCCC1)c1ccc([N+](=O)[O-])cc1Cl,9.3
COC(=O)C1(c2ccccc2)NC(c2ccc(O)cc2)C2C(=O)N(c3ccc4c(c3)OCO4)C(=O)C21 (stereo not given),2.7
CC1(C)C(=O)Nc2ccccc2N1C(=O)COC(=O)c1cc(S(=O)(=O)N2CCOCC2)ccc1F,10.5
O=C(COC(=O)c1cc(=O)c2ccccc2o1)Nc1ccc2ccccc2c1,17.7
O=C(CN1CCN(c2ccccc2)CC1)Nc1ccccc1Cl,-4.4
O=C(CC1Sc2ncnn2C1=O)Nc1ccc(Cl)cc1 (stereo not given),16.9
CC1=CCC2C(=O)N(CCc3c[nH]c4ccccc34)C(=O)C2C1 (stereo not given),-3.4
COC(=O)c1ccc2c(=O)n(CCCCCC(=O)O)c(=O)[nH]c2c1,9.1
O=C(Cc1c[nH]c2ccccc12)NCc1cccs1,8.1
Cc1ccc(Sc2c([N+](=O)[O-])c(C)nn2C)cc1,14.1
O=C(CSc1nc(-c2ccccc2)nc2ccc(F)cc12)Nc1cccc(C(=O)O)c1,20.9
Cc1ccccc1NS(=O)(=O)c1ccc(C)c(NS(C)(=O)=O)c1C,20.3
COc1ccc(-n2nnnc2SCC(=O)Nc2ccccc2N2CCOCC2)cc1OC,12.3
Cc1cc(C)nc(N2CCC(C(=O)NCc3ccccc3F)CC2)n1,2.7
Brc1cccc(OCCSc2ncccn2)c1,17.9
COc1ccc(-c2csc(Nc3ccc(O)cc3)n2)cc1,-6.8
COC(=O)CSc1ncnc2c1cnn2-c1ccc(C)cc1C,17.0
S=C(c1nc2ccccc2[nH]1)N1CCOCC1,10.9
CC(/C=C/c1ccc2c(c1)OCO2)=N\NC(=O)C(O)c1ccccc1 (stereo not given),29.1
COc1cc(Cl)cc(/C=C/c2ccc3ccccc3n2)c1OC(C)=O,8.6
CCOC(=O)c1cc2c(=O)[nH]c(C(Cl)(Cl)Cl)nc2o1,4.8
COc1ccc([N+](=O)[O-])cc1CSc1ccccn1,14.4
COc1ccc(C(=O)Nc2nc3cc4c(cc3s2)OCCO4)c(OC)c1,27.1
Nc1ccc(-c2nc3ccc(N)cc3[nH]2)cc1,-7.5
CS(=O)(=O)N1CCc2cc(-c3csc(NC(=O)Cc4ccccc4)n3)ccc21,13.0
Cc1cc(C)c2c(CC(=O)NCCc3ccccc3)coc2c1,19.2
Cc1nnsc1Sc1ccccn1,7.6
CSc1nc(O)cc(=O)n1-c1ccc(F)cc1,12.9
CCN(CC)C(=O)CSc1nc(-c2ccccc2)ccc1C#N,-13.2
COc1ccccc1NS(=O)(=O)c1cc(NC(=O)c2cc3ccccc3oc2=O)ccc1C,12.9
Cc1cc(C)n2cnnc2n1,18.1
Cc1ccc(NS(=O)(=O)c2cc(NC(=O)c3cc(=O)[nH]c(=O)[nH]3)ccc2Cl)c(C)c1,5.3
COc1ccc(/C(C)=N/NC(=O)c2cc(-c3cccnc3)nc3ccccc23)cc1,21.7
O=C(O)c1ccc(/C=N/N2CCN(C3c4ccccc4-c4ccccc43)CC2)cc1,22.8
COc1ccc2nc(NC3=NC(c4ccccc4)CC(=O)N3)nc(C)c2c1 (stereo not given),15.5
Cc1ccc(C(=O)CSc2nnc(-c3ccco3)n2C)cc1,0.4
CN(NS(C)(=O)=O)c1ncc(C(F)(F)F)cc1Cl,17.9
Cc1ccnn1CC(=O)N/N=C/c1cn[nH]c1-c1ccc(F)cc1,20.3
O=C(CC1CS(=O)(=O)CC1CC(=O)Nc1ccc2c(c1)OCCO2)Nc1ccc2c(c1)OCCO2 (stereo not given),8.8
Cc1ccc(C2=NN(C(=O)COc3ncnc4ccccc34)C(c3ccco3)C2)cc1 (stereo not given),9.5
O=C1COc2ccc(C(=O)COC(=O)C3CC(O)CN3S(=O)(=O)c3ccc(Cl)cc3)cc2N1 (stereo not given),15.7
Cc1nc(NC(=O)Nc2ccc(Cl)cc2)sc1C,17.6
CCC(=O)Nc1cccc(C(=O)/C=C/c2ccc(F)cc2)c1,6.3
O=C(NNC(=O)C1C2CCC(C2)C1C(=O)O)c1ccc(Br)o1 (stereo not given),12.9
CCCCn1c(=O)c(CCC(=O)OCC(=O)NC(C)c2ccccc2)nc2ccccc21 (stereo not given),10.8
C/C(=N\NC(=O)c1csc(C)c1C)c1ccc(C)s1,14.6
Cc1cc(C(=O)N/N=C/C=C/c2ccccc2[N+](=O)[O-])c(C)o1,0.4

# Some of these compounds in order of heavy-atom count, smallest number first.
SMILES,Biofilm kill mix
S=C(c1nc2ccccc2[nH]1)N1CCOCC1,10.9
CC(C)(C)c1ccc(OCC(=O)N/N=C/c2ccsc2)cc1,14.0
COc1cc(OC)c(OC)cc1CNCCSc1nnnn1C,-7.8
COc1cccc(CNC(=O)CCC2CCCN(Cc3cc4ccccc4o3)C2)c1 (stereo not given),3.1
CCOC(=O)c1c(CSc2nc(C)cc(C)c2C#N)n(C)c2cc(Br)c(OC(C)=O)cc12,18.3

# Further compounds
SMILES,Biofilm kill mix
CN1CCN(C(=O)c2cccc(COc3cc(Cl)ccc3Cl)c2)CC1,14.8
CC1(C)OC(=O)C(=NNc2ccc(C(=O)O)cc2)C(=O)O1,14.8
CC1(C)C2CCC1(C)C(OC(=O)C[n+]1ccccc1)C2 (stereo not given),12.7
Cc1ccc(NCC(=O)Nc2cccc(S(=O)(=O)N(C)C)c2)c(Cl)c1,11.4
O=C(O)c1c(-n2cccc2)sc2c1CCCC2,13.3

# 14 entries from above, sorted by length of the SMILES, lowest first:
SMILES,Biofilm kill mix
O=C(O)c1c(-n2cccc2)sc2c1CCCC2,13.3
Cc1nc(NC(=O)Nc2ccc(Cl)cc2)sc1C,17.6
CN(NS(C)(=O)=O)c1ncc(C(F)(F)F)cc1Cl,17.9
Cc1ccc(C(=O)CSc2nnc(-c3ccco3)n2C)cc1,0.4
CC1(C)C2CCC1(C)C(OC(=O)C[n+]1ccccc1)C2 (stereo not given),12.7
CCC(=O)Nc1cccc(C(=O)/C=C/c2ccc(F)cc2)c1,6.3
CC1(C)OC(=O)C(=NNc2ccc(C(=O)O)cc2)C(=O)O1,14.8
CN1CCN(C(=O)c2cccc(COc3cc(Cl)ccc3Cl)c2)CC1,14.8
COc1ccc2nc(NC3=NC(c4ccccc4)CC(=O)N3)nc(C)c2c1 (stereo not given),15.5
Cc1ccc(NCC(=O)Nc2cccc(S(=O)(=O)N(C)C)c2)c(Cl)c1,11.4
Cc1cc(C(=O)N/N=C/C=C/c2ccccc2[N+](=O)[O-])c(C)o1,0.4
Cc1ccc(C2=NN(C(=O)COc3ncnc4ccccc34)C(c3ccco3)C2)cc1 (stereo not given),9.5
O=C(CC1CS(=O)(=O)CC1CC(=O)Nc1ccc2c(c1)OCCO2)Nc1ccc2c(c1)OCCO2 (stereo not given),8.8
Cc1ccc(NS(=O)(=O)c2cc(NC(=O)c3cc(=O)[nH]c(=O)[nH]3)ccc2Cl)c(C)c1,5.3
